# Screening results as filed in PubChem BioAssay.
# Autofluor counter – counter-screen for toxin protease inhibitors: compound fluorescence | fluorescence intensity (test concentration not listed) | compound autofluorescence counterscreen, microsphere flow cytometry; active compounds read high | hit rate 3.1% among 360,000 | AID 624483;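 active = at least 3 SD above the mean of all compounds, about 16000 in these data; inconclusive = too few beads counted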;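 also: 100 nL of 1 mM stock went into each well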
# BJeLR lethal – kills HRASV12-expressing BJeLR cells; BJeLR (HRASV12) viability, CellTiter-Glo ATP luminescence, 48 h; reference of the scale not given here; inhibition, % (concentration not given with the values); hit rate 0.17% among 300,000;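 active = replicate mean above 50%; inconclusive = above 50% but judged a plate artefact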;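 also: 50 nL library stock added to about 25 µL; numbers are from one replicate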
# Mtb hypoxia inh – inhibitors of hypoxia-regulated fluorescent reporter in Mycobacterium tuberculosis; hit rate 0.1% among 300,000; M. tuberculosis hypoxia-regulated fluorescent reporter, fluorescence; fluorescence inhibition, % (no concentration beside the values); AID 1159583;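 active = 35 to 45% if threefold the growth effect, above 45% if 1.5-fold the growth effect; inactive = the rest, general growth blockers included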;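 also: wells of about 50 µL received 100 nL stock; 0% = vehicle wells and 100% = reference inhibitor wells; whole bacteria with a GFP reporter of the hypoxia response; strong numbers were not always called active; many hits fall short of the cut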
# PrP 5UTR inh – inhibition of PrP 5' UTR reporter expression. cell-based PrP 5' UTR mRNA reporter, plate reader. inhibition, % (concentration not given with the values). hit rate 0.35% among 340,000. AID 488862;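 active = every replicate at 50% or more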;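 also: 0 = median of the neutral control wells; tested in H4 reporter cells; numbers are from one replicate; inactives centre near -14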
# Sa ugtP lethal – compounds lethal to S. aureus RN4220 ugtP deletion mutant; OD600 growth, 16 h; some inactives read as strong as hits; growth inhibition, % (test concentration not listed); hit rate 0.54% among 330,000;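 active = z-score under -3 and OD600 up to 0.15 on both plates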;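 also: plate controls were untreated wells for no effect and antibiotic for full effect; wells of about 80 µL received 100 nL stock; the first replicate is given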
# RN4220 kill – kills Staphylococcus aureus RN4220; hit rate 0.33% among 330,000; AID 1259311; inhibition, % (test concentration not listed); S. aureus RN4220 growth, OD600, 16 h;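 active = z-score of -3 or lower and OD600 up to 0.18 on both plates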;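 also: plate controls were untreated cells for no effect and reference antibiotic for full effect; stock transfer was 100 nL into about 80 µL; one replicate is shown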
# Mtb hypoxia inh growth – further read-out of Mtb hypoxia inh, marked with its call; growth inhibition, %; measured here: M. tuberculosis growth (absorbance);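 0% = vehicle and 100% = reference antibiotic; read after six days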
# * marks the source's active call; other numbers are inactive results; ? = inconclusive; · = no result given.
SMILES,Autofluor counter,BJeLR lethal,Mtb hypoxia inh,Mtb hypoxia inh growth,PrP 5UTR inh,Sa ugtP lethal,RN4220 kill
COc1ccc(C2C(C#N)=C(N)Nc3onc(C(C)(C)C)c32)c(OC)c1 (configuration not stated),7356,7,20,9,-21,24,6.6
O=C(Oc1ccccc1Cl)c1ccc(N2CCOCC2)c([N+](=O)[O-])c1,7820,-12,-3,13,-17,2,6.0
Cc1ccc2nc3sc(C(=O)N4CCCc5ccccc54)c(N)c3cc2c1,9219,12,2,3,-36,6,1.0
Cc1ccc(-c2csc3ncn(CC(=O)N4CCOCC4)c(=O)c23)cc1,3755,-1,·,·,-2,9,0.1
CC(=NOCC(=O)NC(C)C)c1cccs1,·,·,14,12,·,0,7.5
Oc1c(Br)cc(/C=N/Nc2ccc(Cl)nn2)cc1Br,3311,4,·,·,11,·,·
C=C1CCN(C(C)C(=O)NCCCCCC)S(=O)(=O)c2ccccc21 (configuration not stated),·,·,10,8,·,6,6.7
N#CCSc1nc2c(c(=O)n1Cc1ccco1)C1(CCCC1)Cc1ccccc1-2,2396,-6,·,·,-12,36,-4.4
O=C(NN=Cc1cccnc1)c1ccc(NC(=O)c2ccccc2Cl)cc1,·,·,4,-2,·,8,4.5
COc1cc(-c2[nH]nc3c2C(c2ccco2)C(C#N)=C(N)O3)cc(OC)c1OC (configuration not stated),2069,-9,5,3,-13,7,14
c1ccc(-c2nc(NCC3CCCO3)c3ccccc3n2)nc1 (configuration not stated),5901,-9,-3,6,-24,-16,0.6
O=C(NC1CCCCC1)C(c1cccnc1)N(CCc1ccccc1)C(=O)Cc1cccs1 (configuration not stated),2482,3,4,8,-11,1,2.3
O=C(CSCc1cccc(Cl)c1)N1CCN(Cc2ccc3c(c2)OCO3)CC1,4797,0,·,·,-22,-8,1.1
O=C(CCn1nc(-c2ccccc2)c2ccccc2c1=O)N1CCN(c2ccccc2)CC1,10204,0,5,10,-10,-12,1.7
C/C=C\C(=O)Nc1cccc(C2=NOC3(C2)C[C@H](C(N)=O)N(C(=O)Cc2ccc([N+](=O)[O-])cc2)C3)c1 (some centres not stated),3755,0,·,·,-12,·,·
COc1ccc(CNC(=O)[C@H](C)NC(=O)C2CCN(C(=O)[C@@H](N)CCSC)CC2)cc1,5036,-10,·,·,-15,3,2.0
COc1cccc(NC(=O)c2ccccc2NS(C)(=O)=O)c1,11096,0,-6,15,-25,-18,0.9
COc1ccc(/C=N\NC(=O)c2ccc(F)cc2)cc1COc1cc(F)ccc1[N+](=O)[O-],4321,-2,·,·,-7,·,·
O=C(NCc1cccnc1)C(=O)Nc1ccc([N+](=O)[O-])cc1,4037,-1,-17,-4,5,1,4.7
O=C(Nc1ccccc1N1CCCCC1)c1cccc([N+](=O)[O-])c1,3306,-5,5,-2,-17,6,1.5
CCOc1ccc(NC(=O)CN(C)C(=O)CCNC(=O)c2ccco2)cc1OCC,8892,·,5,0,-8,2,4.9
O=S(=O)(c1ccc(Cl)cc1)N1CCC2(CC1)OCCN2S(=O)(=O)c1cccs1,·,11,8,2,-12,10,4.2
O=C(NCCc1ccccc1)c1cc(-c2ccccc2)c(N2CCOCC2)s1,6172,-6,·,·,-11,7,3.8
CSc1ccc(/C=C(/NC(=O)c2ccccc2)C(=O)NCCCn2ccnc2)cc1,3933,-3,-11,-2,-6,3,1.4
CC1CC(C)CN(C(=O)C2CCN(S(=O)(=O)c3cccs3)CC2)C1 (configuration not stated),3700,-9,12,9,-17,3,4.2
O=C(CSc1ccc(F)cc1)NCCc1ccc(Cl)cc1,4520,3,6,-6,-20,-6,1.7
COc1cnc(-c2ccccn2)nc1N(C)c1ccccc1,3614,-5,·,·,-3,·,·
Cc1c(C(=O)OCC(=O)N(C)c2ccccc2)cccc1[N+](=O)[O-],3802,4,-1,-1,-19,7,9.9
CN1c2ccc([N+](=O)[O-])cc2C(C)(C)C12C=Cc1cc(C(=O)O)ccc1O2 (configuration not stated),3220,-2,-2,1,-8,53,7.4
Cc1cccc(OCC(=O)NCC(=O)NN=Cc2cc(Br)ccc2OCc2ccccc2)c1,·,·,11,1,·,6,2.2
COC(=O)C1=C(Nc2ccc(C)cc2)C=C(C)C(C(=O)OC)C1c1cccc(OC)c1 (configuration not stated),5396,-4,4,11,-33,-4,-8.7
COc1cccc2c(=O)c(C/C=C(/C)Cl)c(C)[nH]c12,3402,3,-2,-3,-2,-4,-16
Cc1ccc(C(=O)Nc2nccs2)cc1,5031,11,·,·,-109,-1,3.9
c1coc(CN2CN=C(Nc3nc4ccccc4s3)NC2)c1,8779,-8,12,12,-16,6,4.1
COc1ccccc1CNC(=O)COC(=O)c1ccc2c(=O)n3c(nc2c1)CCCCC3,6412,·,2,0,4,5,3.1
O=C(CN1CCCCC1)Nc1ccc(S(=O)(=O)N2CCOCC2)cc1,13513,4,5,2,·,6,4.3
CC(C)CCOP(=O)(c1ccc(N(C)C)cc1)C(Nc1ccccc1)c1ccc(N(C)C)cc1 (configuration not stated),3257,1,-8,-17,-8,-17,-3.5
CCOC(=O)N1CCC(=NNC(=O)Cn2ccc(C(F)(F)F)n2)CC1,2578,2,8,2,-16,3,2.5
OCC1(Cc2ccccc2)CCCN(Cc2cn[nH]c2-c2ccccc2)C1 (configuration not stated),4774,-3,3,-2,-1,1,3.7
COC(=O)c1ccc(NC(=O)CCOc2ccccc2)cc1,4567,7,13,7,-17,0,0.6

# Two compounds picked at random from the list so far:
SMILES,Autofluor counter,BJeLR lethal,Mtb hypoxia inh,Mtb hypoxia inh growth,PrP 5UTR inh,Sa ugtP lethal,RN4220 kill
COc1cc(-c2[nH]nc3c2C(c2ccco2)C(C#N)=C(N)O3)cc(OC)c1OC (configuration not stated),2069,-9,5,3,-13,7,14
Oc1c(Br)cc(/C=N/Nc2ccc(Cl)nn2)cc1Br,3311,4,·,·,11,·,·

# Some of the entries so far, bar-delimited.
Structure | Autofluor counter | BJeLR lethal | Mtb hypoxia inh | Mtb hypoxia inh growth | PrP 5UTR inh | Sa ugtP lethal | RN4220 kill
COc1cccc2c(=O)c(C/C=C(/C)Cl)c(C)[nH]c12 | 3402 | 3 | -2 | -3 | -2 | -4 | -16
Cc1ccc(C(=O)Nc2nccs2)cc1 | 5031 | 11 | · | · | -109 | -1 | 3.9
c1coc(CN2CN=C(Nc3nc4ccccc4s3)NC2)c1 | 8779 | -8 | 12 | 12 | -16 | 6 | 4.1
COc1ccccc1CNC(=O)COC(=O)c1ccc2c(=O)n3c(nc2c1)CCCCC3 | 6412 | · | 2 | 0 | 4 | 5 | 3.1
O=C(CN1CCCCC1)Nc1ccc(S(=O)(=O)N2CCOCC2)cc1 | 13513 | 4 | 5 | 2 | · | 6 | 4.3

# Next part
SMILES,Autofluor counter,BJeLR lethal,Mtb hypoxia inh,Mtb hypoxia inh growth,PrP 5UTR inh,Sa ugtP lethal,RN4220 kill
CC(C)c1ccc(NC2CCCN(C(=O)CN3CCCC3=O)C2)cc1 (configuration not stated),6879,-1,-1,2,-1,2,1.7
CC1CCCCN1C(=O)CSc1nnc(-c2ccccc2O)o1 (configuration not stated),3856,8,4,-2,-45,-3,1.0
N/C(=N\OC(=O)CCCOc1ccc(Cl)cc1Cl)c1ccccn1,3201,0,15,4,-14,3,0.8
COc1cccc(OC)c1C(=O)NC(=S)Nc1ccc2c(c1)Cc1ccccc1-2,9698,-4,·,·,-32,12,0.2
CC1CC=CC2C1C(=O)N(Cc1ccccc1)C2c1ccc(-c2cc3ccccc3s2)cc1F (configuration not stated),·,·,2,16,·,0,1.8
O=C(Cn1c(C(F)(F)F)nc2ccccc21)c1ccccc1,12188,2,8,12,-16,6,9.7
O=C1C2C3C=CC(C3)C2C(=O)N1CNc1ccccc1 (configuration not stated),2636,-3,·,·,-19,0,-6.3
C[C@@H]1CN=C2N(CCNC(=O)CCC3CCCCC3)[C@H](Cc3ccc(O)cc3)CN21,3981,0,·,·,-12,·,·
CCC(=O)N(C)CCc1cc2c(c(OC)c1/C=N/NC(=O)[C@H]1C[C@@H]1c1ccccc1)OCO2,4247,4,·,·,-15,·,·
COc1ccc(Cc2nc(-c3ccccc3)no2)cc1,21271*,1,9,10,-85,16,0.7
Cc1cccc(N2CC(C(=O)OCC(=O)Nc3sccc3C(N)=O)CC2=O)c1C (configuration not stated),3533,·,2,2,-12,3,1.6
CCc1ccc(NC(=O)CN(c2ccc(OC)cc2)S(=O)(=O)c2c(C)nn(C)c2C)cc1,5375,-1,7,1,-3,11,3.8
O=C(c1ccc(S(=O)(=O)NCC2CCCO2)cc1)N1CCN(c2ccccc2)CC1 (configuration not stated),3500,-8,2,0,-30,2,3.9
CCOC(=O)Cc1c(C)nc2c(C#N)c(C)nn2c1C,3633,-17,7,7,-17,3,1.7
CCOc1ccc2nc(NC(=O)c3cccnc3)sc2c1,2434,13,13,12,-62,6,7.6
CCOc1cc(NC(=O)C2CCCO2)c(OCC)cc1NC(C)=O (configuration not stated),17626*,-1,0,-8,-15,-2,-0.2
CCCN1C2CCCC1CC(NC(=O)c1cc(OC)cc(OC)c1)C2 (configuration not stated),3280,-3,8,1,-21,0,5.2
O=C(OCc1ccc(F)cc1)c1cc(S(=O)(=O)N2CCCCC2)ccc1N1CCOCC1,?,-4,8,13,-15,6,3.7
CC(Oc1ccc2c(-c3ccccc3)cc(=O)oc2c1)C(=O)NCCN1CCOCC1 (configuration not stated),5335,-1,0,0,-10,9,1.5
COc1cc(NC(=O)c2c(F)c(F)c(F)c(F)c2F)c(OC)cc1Cl,21733*,5,·,·,12,-7,2.9
O=C(c1cnn2c(C(F)(F)F)cc(-c3ccccc3)nc12)N1CCCCC1c1cccnc1 (configuration not stated),4234,1,-11,-4,0,-1,-1.8
CN(C)c1ccc(-c2nnc(SCC3CCCO3)n2C)cc1 (configuration not stated),3309,5,0,5,-44,5,5.3
O=C(NCCO)c1ccc(Oc2ccc(C(F)(F)F)cc2[N+](=O)[O-])cc1,4474,-10,8,1,-7,6,7.4
CCc1cc(C(=O)c2ccc(C)cc2)c(NC(=O)CCl)s1,2104,-5,17,19,-28,22,4.1
COc1ccc(C2=CC(=O)CC(c3ccc(OC)cc3)C2)cc1 (configuration not stated),3378,6,·,·,-2,·,·
COc1ccc(NC(=O)CN(C)S(=O)(=O)c2cccc3nsnc23)cc1OC,2546,1,·,·,-27,·,·
CC(=O)O[C@H]1C[C@@]2(C)[C@@H](C[C@@H](O)[C@H]3[C@@]4(C)CC[C@@H](O)[C@@H](C)C4CC[C@@]32C)/C1=C(\CCC=C(C)C)C(=O)O (some centres not stated),6378,-5,·,·,-18,·,·
CON=CNC(=O)NOCc1ccc(Cl)cc1Cl,·,·,20,22,·,-5,5.4
Cc1ccc(/C=N/c2sc(Cc3ccccc3)c(C)c2C(N)=O)o1,2536,-8,·,·,-31,·,·
Cn1nc([N+](=O)[O-])nc1Sc1nnc(-c2ccccc2)o1,2831,56*,12,23,-28,11,2.5
O=C(Nc1ccc(/C=C/c2nc3ccccc3o2)cc1)c1cccc(C(F)(F)F)c1,2508,11,·,·,-24,·,·
COc1cc(CN(C)CC2CCCN(CCc3ccccc3F)C2)cc(Cl)c1OC (configuration not stated),?,-10,·,·,12,·,·
CC1CC(C)CN(C(=O)Cn2c(=O)n(CCCCC(=O)NCc3ccco3)c(=O)c3ccccc32)C1 (configuration not stated),2530,2,·,·,-8,-2,0.4
Cc1ccc(Cn2nnc3c(=O)[nH]c(C4CCCN(S(=O)(=O)c5ccc(F)cc5)C4)nc32)cc1 (configuration not stated),3589,-13,5,0,-35,-5,12
CC1Oc2ccccc2N(Cc2ccccc2Cl)C1=O (configuration not stated),23481*,14,3,0,-6,16,6.2
CCOc1ccc(-c2nnn(CC(=O)NCc3ccc(F)cc3)n2)cc1OCC,11727,0,-5,-11,-1,8,4.8
Cc1cc(Br)cc(C=NNC(=O)c2ccc3c(c2)OCO3)c1O,·,·,3,2,·,11,-11
COC(=O)C1=C(c2cccc(OCc3ccccc3)c2)CC2CCC1N2C(=O)NNCc1ccccc1 (configuration not stated),·,·,11,8,·,9,-2.0
CN(C)c1ccc(C=C2C=Cc3ccccc32)cc1,2953,·,1,5,-10,-4,-4.1
CCC(C)[C@H](N)C(=O)NCC1CCC(C(=O)N[C@@H](Cc2ccccc2)C(=O)O)CC1 (some centres not stated),·,·,-2,2,·,2,2.9
CCn1c(=S)sc2c(=O)n(CC(=O)Nc3ccccc3C(F)(F)F)c(C)nc21,4835,0,-8,0,-25,-5,0.2

# Outcome played no part in choosing rows; about 3.9% have a hit in one of these screens.
